High-throughput results (PubChem BioAssay)
Yeast UUG start: alters start codon recognition fidelity in yeast | 350,000 compounds, 0.13% hits | activity score, % at 18.7 µM | AID 602363 | S. cerevisiae UUG-firefly luciferase reporter, luminescence/redox ratio;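 active = replicate mean at a twofold rise or more, about +100% in these data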;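 note: firefly luciferase made from a UUG start codon reports start codon fidelity; reporter light over untreated wells divided by growth signal over untreated wells; some hits fall short of that in this replicate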
Starred values were filed as active, the others as inactive.

SMILES	Yeast UUG start
COc1ccc(C#Cc2ccc([C@@H]3[C@@H](CO)N4CCCCN(C(=O)Nc5ccc(F)cc5)C[C@H]34)cc2)cc1	0
C[C@H]1CN([C@@H](C)CO)C(=O)c2cccc(NC(=O)c3nc4ccccc4s3)c2O[C@H]1CN(C)Cc1ccncc1	3
O=C(C1CCCC1)N1C[C@H]2[C@@H](c3ccccc31)[C@@H](CO)N2C(=O)c1ccccc1	-1
CO[C@@H]1CN(C)C(=O)c2ccc(NC(C)=O)cc2OC[C@@H](C)N(CCc2ccccc2)C[C@H]1C	2
CNC[C@@H]1Oc2ccc(NS(=O)(=O)c3ccc(C)cc3)cc2CC(=O)N([C@H](C)CO)C[C@H]1C	-19
CC(=O)N1[C@H](CO)[C@H](c2ccccc2)[C@H]1CN(CC(C)C)C(=O)c1ccccn1	-11
COCC(=O)N1C[C@@H](C)[C@H](OC)CN(C)C(=O)c2ccc(NC(=O)C3CCC3)cc2OC[C@@H]1C	-3
Cc1cccc(-c2ccc([C@H]3[C@H]4CN(S(=O)(=O)c5cccs5)CCCCN4[C@H]3CO)cc2)c1	-12
COc1cccc(-c2ccc3c(c2)[C@H]2[C@H](CCN2S(=O)(=O)c2ccccc2OC)[C@H](CO)N3)c1	-5
Cc1ccc(NC(=O)C[C@H]2CC[C@H]3[C@@H](COc4ccc(NS(C)(=O)=O)cc4C(=O)N3C)O2)cc1	16
CC(C)NC(=O)N1[C@@H]2CN(C(=O)Nc3ccc(F)cc3)c3ccccc3[C@@H]2[C@@H]1CO	12
C[C@H](CO)N1C[C@H](C)[C@@H](CN(C)C(=O)Nc2ccc(F)cc2)Oc2ccc(NS(=O)(=O)c3ccc(Cl)cc3)cc2C1=O	7
COc1ccc(NC(=O)Nc2cccc3c2O[C@@H](CN(C)C)[C@H](C)CN([C@H](C)CO)C3=O)cc1	-7
COc1ccc(S(=O)(=O)N(C)C[C@H]2Oc3ccc(NC(=O)Cc4ccccc4)cc3CC(=O)N([C@H](C)CO)C[C@H]2C)cc1	-8
COc1ccc(NC(=O)N(C)C[C@H]2Oc3ccc(NC(=O)CCCN(C)C)cc3C(=O)N([C@@H](C)CO)C[C@H]2C)cc1	12
CC(C)NC(=O)Nc1ccc2c(c1)CC(=O)N([C@H](C)CO)C[C@H](C)[C@@H](CN(C)Cc1ccc(Cl)c(Cl)c1)O2	6
CO[C@H]1CN(C)C(=O)c2ccc(NS(C)(=O)=O)cc2OC[C@@H](C)N(CC2CC2)C[C@H]1C	9
O=C(C[C@H]1C[C@@H]2c3cc(NC(=O)NC4CCCC4)ccc3O[C@@H]2[C@@H](CO)O1)NCc1ccc(-c2ccccc2)cc1	-9
C[C@@H]1CN([C@H](C)CO)C(=O)Cc2cc(NC(=O)Nc3ccccc3)ccc2O[C@H]1CN(C)S(=O)(=O)c1ccc(Cl)cc1	12
CO[C@@H]1CN(C)C(=O)c2ccc(NC(=O)c3cnccn3)cc2OC[C@H](C)N(C(=O)C2CC2)C[C@H]1C	-3

The closing 5 compounds of the section above lead into the next.
SMILES	Yeast UUG start
CC(C)NC(=O)Nc1ccc2c(c1)CC(=O)N([C@H](C)CO)C[C@H](C)[C@@H](CN(C)Cc1ccc(Cl)c(Cl)c1)O2	6
CO[C@H]1CN(C)C(=O)c2ccc(NS(C)(=O)=O)cc2OC[C@@H](C)N(CC2CC2)C[C@H]1C	9
O=C(C[C@H]1C[C@@H]2c3cc(NC(=O)NC4CCCC4)ccc3O[C@@H]2[C@@H](CO)O1)NCc1ccc(-c2ccccc2)cc1	-9
C[C@@H]1CN([C@H](C)CO)C(=O)Cc2cc(NC(=O)Nc3ccccc3)ccc2O[C@H]1CN(C)S(=O)(=O)c1ccc(Cl)cc1	12
CO[C@@H]1CN(C)C(=O)c2ccc(NC(=O)c3cnccn3)cc2OC[C@H](C)N(C(=O)C2CC2)C[C@H]1C	-3
CO[C@@H]1CN(C)C(=O)c2ccc(NS(=O)(=O)c3cccc(F)c3)cc2OC[C@H](C)N(Cc2cc(F)ccc2F)C[C@@H]1C	5
Cc1ccc(S(=O)(=O)N(C)C[C@@H]2Oc3c(NC(=O)c4nc5ccccc5s4)cccc3C(=O)N([C@@H](C)CO)C[C@H]2C)cc1	-19
CCNC(=O)C[C@H]1CC[C@H]2[C@@H](COC[C@@H](O)CN2C(=O)CC)O1	-19
CCC(=O)N1CC[C@@H]2[C@@H](CO)N(C)c3ccc(-c4cccc(OC)c4)cc3[C@@H]21	1
C[C@@H]1CN([C@@H](C)CO)C(=O)c2cc(NC(=O)C3CCCCC3)ccc2O[C@H]1CN(C)Cc1ccc(Cl)c(Cl)c1	5
C[C@H]1CN([C@@H](C)CO)C(=O)c2cccc(NS(C)(=O)=O)c2O[C@@H]1CN(C)C(=O)Nc1ccc(F)cc1	-1
C[C@@H]1CN([C@@H](C)CO)C(=O)c2cc(NC(=O)Cc3cn(C)c4ccccc34)ccc2O[C@@H]1CN(C)C(=O)Nc1cccc2ccccc12	-14
COc1ccc(C#Cc2ccc([C@@H]3[C@@H](CO)N4CCCCN(C(=O)Nc5cccc(F)c5)C[C@@H]34)cc2)cc1	-4
CO[C@@H]1CN(C)C(=O)c2cc(NS(=O)(=O)c3ccc(C)cc3)ccc2OC[C@H](C)N(C)C[C@H]1C	6
COc1ccc(NC(=O)N(C)C[C@@H]2Oc3c(NC(=O)c4cnccn4)cccc3C(=O)N([C@@H](C)CO)C[C@H]2C)cc1	-4
COc1ccc(S(=O)(=O)N2CCCCN3[C@H](CO)[C@H](c4ccc(C#CC(C)C)cc4)[C@@H]3C2)cc1	9
COc1ccccc1NC(=O)N1C[C@H]2[C@@H](c3ccccc31)[C@H](CO)N2Cc1ccccc1F	-3
CCCNC(=O)Nc1ccc2c(c1)C(=O)N(C)[C@H]1CC[C@@H](CC(=O)NCCCN(C)C)O[C@H]1CO2	-12
COc1ccc(C#Cc2ccc([C@@H]3[C@@H](CO)N4CCCCN(C(=O)Nc5cccc(F)c5)C[C@H]34)cc2)cc1	8
C[C@@H]1CN([C@H](C)CO)C(=O)c2cc(NC(=O)c3ccncc3)ccc2O[C@H]1CN(C)C(=O)Nc1ccc(F)cc1	0
O=C(Nc1cc(F)ccc1F)N1CCCCN2[C@H](CO)[C@@H](c3ccc(-c4ccccc4)cc3)[C@H]2C1	0
O=S(=O)(c1ccccc1)N1CC[C@@H]2[C@H]1c1cc(Br)ccc1N[C@@H]2CO	0
Cc1noc(C)c1NC(=O)N(C)C[C@@H]1Oc2ccc(NC(=O)Cn3cnnn3)cc2C(=O)N([C@@H](C)CO)C[C@H]1C	-25
CN(C)C(=O)C[C@@H]1CC[C@@H]2[C@@H](COc3ccc(NC(=O)Nc4cccc(Cl)c4)cc3C(=O)N2C)O1	12
CO[C@H]1CN(C)C(=O)c2ccc(NS(C)(=O)=O)cc2OC[C@H](C)N(C(=O)C2CC2)C[C@H]1C	-1
C[C@H]1CN([C@@H](C)CO)C(=O)c2cc(NC(=O)CCCN(C)C)ccc2O[C@H]1CN(C)S(=O)(=O)c1ccc(Cl)cc1	36
CCNC(=O)Nc1ccc2c(c1)C(=O)N(C)[C@H]1CC[C@@H](CC(=O)NC3CCCCC3)O[C@H]1CO2	-1
C[C@@H]1CN([C@H](C)CO)C(=O)c2cc(NC(=O)Nc3ccc(C(F)(F)F)cc3)ccc2O[C@@H]1CN(C)CC1CCCCC1	0
CC(C)NC(=O)Nc1ccc2c(c1)CC(=O)N([C@@H](C)CO)C[C@H](C)[C@H](CN(C)Cc1ccncc1)O2	5
CO[C@H]1CN(C)C(=O)c2ccc(NC(=O)C3CC3)cc2OC[C@H](C)N(C(=O)NC(C)C)C[C@@H]1C	-3
O=S(=O)(c1ccccc1F)N1CCCCN2[C@@H](CO)[C@@H](c3ccc(-c4ccncc4)cc3)[C@@H]2C1	8
O=C(Nc1cc(F)ccc1F)N1C[C@H]2[C@@H](c3ccccc31)[C@H](CO)N2Cc1cccnc1	-4
C[C@H](CO)N1C[C@H](C)[C@H](CN(C)Cc2ccncc2)Oc2c(NC(=O)Nc3ccccc3)cccc2C1=O	-5
CN(C)C(=O)C[C@@H]1C[C@H]2c3cc(NC(=O)c4ccc5c(c4)OCO5)ccc3O[C@H]2[C@@H](CO)O1	5
CCNC(=O)C[C@@H]1CC[C@H]2[C@H](COc3ccc(NC(=O)Nc4ccccc4Cl)cc3C(=O)N2C)O1	20
COc1cccc(S(=O)(=O)N2CCCCN3[C@H](CO)[C@@H](c4ccc(C#CC(C)C)cc4)[C@@H]3C2)c1	3
COC(=O)C[C@@H]1CC[C@@H]2[C@H](COc3ccc(NC(=O)Nc4cccc(F)c4)cc3C(=O)N2C)O1	0
CN(C)C(=O)c1cccc(-c2ccc3c(c2)[C@@H]2[C@@H](CCN2C(=O)c2ccc4c(c2)OCO4)[C@@H](CO)N3)c1	-11
CCC(=O)Nc1ccc2c(c1)C(=O)N(C)C[C@H](OC)[C@@H](C)CN(CC1CC1)[C@@H](C)CO2	-14
O=C(C[C@H]1CC[C@H]2[C@@H](COC[C@@H](O)CN2Cc2ccc(Oc3ccccc3)cc2)O1)N1CCCCC1	9
O=C(NC[C@H]1[C@H](c2ccccc2)[C@H](CO)N1C(=O)Cc1cccnc1)C1CC1	9
O=C(C1CC1)N1CCCCN2[C@@H](CO)[C@H](c3ccc(C#CC4(O)CCCC4)cc3)[C@@H]2C1	16
CCCC(=O)Nc1ccc2c(c1)C(=O)N(C)C[C@H](OC)[C@@H](C)CN(Cc1cccc(F)c1)[C@@H](C)CO2	-10
CNC[C@@H]1Oc2c(NS(=O)(=O)c3ccc(Cl)cc3)cccc2C(=O)N([C@H](C)CO)C[C@@H]1C	7
C[C@@H]1CN([C@@H](C)CO)C(=O)c2cccc(NC(=O)Nc3ccc(F)cc3)c2O[C@H]1CN(C)Cc1ccc2c(c1)OCO2	-8
C/C=C/c1ccc([C@H]2[C@@H](CO)N3CCCCN(C(=O)Nc4ccc(F)cc4)C[C@@H]23)cc1	-1
CN1CCN(C(=O)C[C@H]2CC[C@@H]3[C@H](COC[C@H](O)CN3C(=O)Nc3ccc(Cl)cc3)O2)CC1	7
O=C(c1cccc(F)c1)N1CCCCN2[C@H](CO)[C@H](c3ccc(-c4ccncc4)cc3)[C@H]2C1	1
CC(C)(O)C#Cc1ccc([C@@H]2[C@H]3CN(C(=O)c4ccncc4)CCCCN3[C@H]2CO)cc1	8
CN(C)C(=O)c1cccc(-c2ccc([C@H]3[C@@H](CO)N4CCCCN(C(=O)C5CCCC5)C[C@H]34)cc2)c1	-5
OC[C@H]1[C@@H](c2ccc(C#Cc3ccccc3)cc2)[C@@H]2CN(CC3CCOCC3)CCCCN12	-6
CN(C)C(=O)c1ccc(-c2ccc3c(c2)[C@@H]2[C@@H](CCN2Cc2ccc4c(c2)OCO4)[C@H](CO)N3)cc1	10
CNC[C@@H]1Oc2ccc(NC(=O)Nc3ccc(F)cc3)cc2C(=O)N([C@@H](C)CO)C[C@@H]1C	3
CCCC(=O)Nc1ccc2c(c1)C(=O)N(C)[C@@H]1CC[C@H](CC(=O)N3CCCCC3)O[C@@H]1CO2	3
C[C@@H]1CN([C@H](C)CO)C(=O)c2cccc(N(C)C)c2O[C@@H]1CN(C)C(=O)Nc1ccccc1	-6
OC[C@H]1[C@@H](c2ccc(C#Cc3ccccc3F)cc2)[C@@H]2CN(CC3CCOCC3)CCCCN12	-5
C[C@@H]1CN([C@H](C)CO)C(=O)c2cc(NS(=O)(=O)c3ccc(Cl)cc3)ccc2O[C@H]1CN(C)S(=O)(=O)c1cn(C)cn1	3
COc1ccc(S(=O)(=O)N(C)C[C@@H]2Oc3ccc(NC(=O)C4CC4)cc3C(=O)N([C@H](C)CO)C[C@@H]2C)cc1	26
C[C@H]1CN([C@@H](C)CO)C(=O)c2cc(NC(=O)CCCN(C)C)ccc2O[C@@H]1CN(C)S(=O)(=O)c1ccc(F)cc1	2
N#Cc1ccc(-c2ccc3c(c2)[C@@H]2[C@@H](CCN2C(=O)Cc2ccncc2)[C@@H](CO)N3)cc1	0
CCC(=O)Nc1ccc2c(c1)OC[C@H](C)N(C(=O)Cc1ccccn1)C[C@@H](C)[C@@H](OC)CN(C)C2=O	3
Cc1ccc(S(=O)(=O)Nc2ccc3c(c2)C(=O)N([C@H](C)CO)C[C@@H](C)[C@H](CN(C)Cc2ccncc2)O3)cc1	-15
O=C(c1ccccc1F)N1C[C@H]2[C@@H](c3ccccc31)[C@@H](CO)N2CC1CCCCC1	3
CCC(=O)N1CCCCN2[C@H](C1)[C@@H](c1ccc(-c3cccc(C#N)c3)cc1)[C@@H]2CO	10
C[C@H](CO)N1C[C@H](C)[C@H](CN(C)CC2CC2)Oc2ccc(NS(=O)(=O)c3ccc(F)cc3)cc2C1=O	8
Next part.
SMILES	Yeast UUG start
CN1c2ccc(C#Cc3cccnc3)cc2[C@@H]2[C@@H](CCN2S(=O)(=O)c2cccc(F)c2)[C@H]1CO	-7
COc1ccc(NC(=O)Nc2ccc3c(c2)C(=O)N([C@@H](C)CO)C[C@@H](C)[C@H](CN(C)Cc2ccc(Cl)c(Cl)c2)O3)cc1	-4
COc1ccccc1C#Cc1ccc([C@@H]2[C@@H](CO)N3CCCCN(C(=O)C4CCC4)C[C@H]23)cc1	10
O=C(NC[C@@H]1N[C@@H](CO)[C@H]1c1ccccc1)c1ccccc1F	0
O=C(c1cnccn1)N1CC[C@H]2[C@H](CO)Nc3ccc(C#Cc4cccnc4)cc3[C@H]21	-1
CCCNC(=O)C[C@H]1CC[C@@H]2[C@@H](COc3ccc(NC(=O)NC(C)C)cc3C(=O)N2C)O1	0

Gathered by group: the entries above with two or more sulfur atoms
SMILES	Yeast UUG start
Cc1cccc(-c2ccc([C@H]3[C@H]4CN(S(=O)(=O)c5cccs5)CCCCN4[C@H]3CO)cc2)c1	-12
Cc1ccc(S(=O)(=O)N(C)C[C@@H]2Oc3c(NC(=O)c4nc5ccccc5s4)cccc3C(=O)N([C@@H](C)CO)C[C@H]2C)cc1	-19
C[C@@H]1CN([C@H](C)CO)C(=O)c2cc(NS(=O)(=O)c3ccc(Cl)cc3)ccc2O[C@H]1CN(C)S(=O)(=O)c1cn(C)cn1	3

Not all compounds are listed, so the mix of outcomes need not match the whole.
